N370S GC: inhibitors or activators of N370S glucocerebrosidase for Gaucher disease; P04062; Potency, µM (top dose mostly 59.4 µM), for inactives: top-dose activity change, negative = inhibition, most hits filed as inhibitors; N370S GC spleen homogenate, 4MU-glucoside fluorescence; AID 2101; 330,000 compounds, 0.092% hits; active = well fitted inhibition curve with a large enough effect; inconclusive = small, poorly fitted or top-dose-only effect, or effect the other way, or another doubt; inactive = no such curve, though single readings can be large or run the other way;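 also: 0% = full enzyme activity and -100% = no enzyme basal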
An asterisk follows results filed as active; ? = inconclusive; & = joins results of further samples; [ ] = dose if it differs, or a comment. Potency is read from the fitted curve at half-maximal effect.

Molecule	N370S GC
CCN(CCn1cccn1)C(=O)C1CCC(=O)N(CCc2cccc(F)c2)C1 (stereo unspecified)	-1%
Cc1ccsc1C1Nc2ccc3ncccc3c2C2=C1C(=O)CCC2 (stereo unspecified)	-6%
COc1cc2[nH]c(=S)n(C3CC3)c(=O)c2cc1OC	-6%
COc1ccc(NC(=O)C2CCC(C(C)(C)C)CC2)cc1S(=O)(=O)N1CCCCC1 (stereo unspecified)	-2%
NC(=O)C1CCN(S(=O)(=O)Cc2ccccc2Cl)CC1	-16%
Cc1cc(/C=C(\C#N)C(=O)NC2CCCCCC2)c(C)n1C	6%
CC(C)/C=C1\CCCCC1N(C)C(=O)NC(C)C (stereo unspecified)	-12%
O=C(NCc1ccc(F)cc1)c1cc2ccccn2n1	4%
O=S(=O)(NCC1OCCc2ccccc21)c1ccccc1 (stereo unspecified)	3%
CCOc1ccccc1NC(=O)c1oc2ccccc2c1NC(=O)C1CC1	-10%
CCOc1ccc(-c2nc(CSc3nncs3)cs2)cc1OC	-14%
CC(C(=O)NC1CC1)c1ncc(C(F)(F)F)cc1Cl (stereo unspecified)	-3%
Cc1ccc2nc(/N=C(\N)NC(=O)NC3CCCCC3)nc(C)c2c1	-11%
CCc1ccc(OCC(=O)NC(=S)Nc2ccc(C(=O)O)cc2)cc1	-1%
C/C(=N/Oc1nc(C)cc(C)n1)c1ccc(F)cc1	-2%
CN(Cc1ccccc1)C(=O)C1CCCN(c2ncnc3c2nc2n3CCCCC2)C1 (stereo unspecified)	5%
CC(=O)c1cc(NC(=O)c2ccccc2)c(=O)oc1/C=C/N(C)C	0%
CC(Oc1ccccc1)C(=O)OCC(=O)NC(=O)NCc1ccco1 (stereo unspecified)	7%
COc1ccc(NC(=O)c2ccccc2NC(=O)NC2CCCCC2)cc1	4%
Cc1ccccc1OCC(=O)O/N=C(\N)Cc1cccs1	-13%
CCOC(=O)Cc1csc(NC(=O)c2csc(C)c2)n1	3%
O=C(N/C(=C\c1ccccc1)C(=O)N1CCOCC1)c1cccc(Br)c1	-3%
COc1ccc(NC(=O)C2CCN(c3ncnc4c3nc3n4CCCCC3)CC2)c(OC)c1	-5%
Cc1cccc(NC(=O)Nc2ccc(C)c(C)c2)n1	?
Fc1ccc(CNC2CCN(Cc3ccccc3)CC2)cc1	-15%
CCCCOC(=O)C1[C@H]2C(=O)N(CCc3ccccc3)C[C@]23C=C[C@H]1O3 (stereo partly specified)	2%
COc1ccccc1OCCSc1nc2ccccc2n1CCO	0%
CCN1CCN(c2ccc(S(=O)(=O)N3CCCCC3)cc2NC(=O)COc2ccccc2)CC1	-9%
O=C(CN(c1ccccc1)S(=O)(=O)c1ccccc1)N/N=C/c1ccco1	25%
Cc1cc(C(=O)OCC(=O)Nc2cc(S(=O)(=O)N(C)C)ccc2Cl)c2ccccc2n1	-12%
COc1cccc(NC(=O)CN(C)C(C)C(=O)Nc2ccc(S(=O)(=O)N3CCCC3)cc2)c1 (stereo unspecified)	-2%
Cc1nn(C)c(C)c1/C=C/C(=O)c1ccccc1	-5%
O=C(NCc1ccc(CNC(=O)c2ccco2)cc1)c1ccco1	-3%
O=C(CSc1ccc(F)cc1)NCCSc1ccccc1	-4%
CCc1ccc(NC(=O)c2ccc(F)c(S(=O)(=O)NCC3COc4ccccc4O3)c2)cc1 (stereo unspecified)	7%
O=C(Cn1c(=O)n(CC2CCCO2)c(=O)c2ccccc21)c1ccccc1 (stereo unspecified)	4%
COC(=O)C(Cc1cnc(Cl)s1)(C(=O)OC)c1ccc(C(F)(F)F)cc1[N+](=O)[O-]	0%
Cc1ccc(/C=C/C(=O)NCCCc2ccccc2)cc1	5%
CCC(C)[C@H](NC(=O)Nc1cccc(Br)c1)C(=O)OC (stereo partly specified)	4%
O=C(NC1CCCC1)C(c1ccc(F)cc1)N(C(=O)c1csnn1)c1ccccc1 (stereo unspecified)	-11%
Cc1c(S(=O)(=O)N2CCOCC2)c(=O)n(C)c(=O)n1C	1%
Cc1ccc(C(=O)NCC(=O)NCCCc2ccccc2)s1	-1%
CCC(Cc1ccccc1)NC(=O)CCNS(=O)(=O)c1cc(Br)cnc1N (stereo unspecified)	-7%
CCOC(=O)c1nnn(-c2nonc2N)c1C	20%
Cc1nc(C(=O)O)nn1-c1cc(Cl)ccc1Cl	-1%
COC(=O)c1ccc2c(=O)n(Cc3ccc(C(=O)NCCCN4CCOCC4)cc3)c(=S)[nH]c2c1	-6%
CC(C)NC(=O)c1ccccc1-c1nc(-c2ccccc2Cl)no1	-2%
O=C(NN1C(=O)C2C3C=CC(C4CC34)C2C1=O)c1ccc(Cl)cc1Cl (stereo unspecified)	10%
C=CCn1c(SCCOc2ccc(OC)cc2)nnc1C(CO)NC(=O)c1ccc(OC)cc1 (stereo unspecified)	-4%
Cc1ccc(-c2nnc(CSc3nc(C)nc4sc(C)c(C)c34)o2)cc1	-22%
COc1ccc(OC)c(/C=N/NC(=O)c2cc(-c3ccc(C)o3)nc3ccccc23)c1	19%
COc1ccc(S(=O)(=O)N2CCCN(S(=O)(=O)c3ccc(OC)c(C)c3)CC2)cc1C	3%
CCc1ccc(-c2ccc3nnc(SC)n3n2)cc1	0%
Cn1ccc(C(=O)NC(=S)N2CCSCC2)n1	-5%
CC(=O)c1cccc(OCC(O)CN2CCN(C(=O)c3ccco3)CC2)c1 (stereo unspecified)	-7%
CCN1C(=O)N[C@@H](c2ccccc2)C1=O	3%[21.6 µM]
CCCNC(=O)c1ccc(C2SCC(=O)N2CCc2ccccc2)cc1 (stereo unspecified)	2%
Cc1cccc(OCC(=O)Nc2ccc3c(c2)nc(CCN2CCN(C)CC2)n3C)c1	-8%[2.35 µM]
COc1ccc(OC)c(NC(=O)C2CCN(c3ncccn3)CC2)c1	5%
CC(=O)c1sc(N/N=C2\CC3CC2C(C)C3(C)C)nc1C (stereo unspecified)	1%

Next section:
Molecule	N370S GC
CCn1cc(C(=O)O)c(=O)c2cc(F)c(N3CCN(C)CC3)cc21	-3%&11%
CCOC(=O)C1(S(=O)(=O)c2ccccc2)CCN(Cc2ccccc2)CC1	-11%
O=C(CSc1nnc(Cn2nnc3ccccc32)o1)Nc1cccc(Cl)c1	-1%
CCOc1ccc(C(=O)NCC(C)CN(C)C)cc1OCC (stereo unspecified)	1%
Cc1cc(-c2nn(-c3ccccc3F)cc2CNCCc2cnc[nH]2)c(C)s1	-2%
CSc1nnc(C)c(=O)n1COC(=O)c1ccc(S(=O)(=O)N2CCOCC2)cc1	4%
OC(CCc1ccncc1)COc1ccccc1 (stereo unspecified)	-2%
O=C(/C=C\c1ccco1)c1ccc(NC(=O)c2ccco2)cc1	1%
CC1(C)CC(=O)C(C2c3ccccc3S(=O)(=O)c3ccccc32)C(=O)C1	-9%
O=C(NC(=S)Nc1ccc(F)cc1)c1ccc2c(c1)OCCO2	9%
O=C(C1CC(=O)N(c2ccccc2)C1)N1CCN(c2ccccc2F)CC1 (stereo unspecified)	0%
Cc1ccc(OCc2cc(C(=O)N3CCC(Oc4cccnc4)CC3)no2)cc1C	-23%
Cc1ccc(C(=O)N2CCN(c3ncc(C(F)(F)F)cc3Cl)CC2)s1	-5%
Cc1cc(OCC(=O)O)c2ccccc2n1	4%
COc1ccccc1C(=O)N/C(=C/c1ccccc1)C(=O)NC(CCSC)C(=O)O (stereo unspecified)	-4%
CCN(CC(=O)Nc1sc2c(c1C#N)CCC(C)C2)Cc1nc2ccccc2c(=O)[nH]1 (stereo unspecified)	?
Cc1noc(NS(=O)(=O)c2ccc(NC(=O)c3ccc(Cl)c(S(=O)(=O)N(C)c4ccccc4)c3)cc2)c1C	3%
Cc1cc(C)nc(SCc2cnc(C)nc2N)n1	5%
Cc1ccc(C(=O)CC2(O)C(=O)N(C)c3ccccc32)o1 (stereo unspecified)	2%
COCCCn1c(SCC(=O)NC2CCCCC2)nc2ccccc2c1=O	-3%
CCCOc1ccc(NC(=O)CC2C(=O)N(c3ccc(OCC)cc3)C(=S)N2C2CC2)cc1 (stereo unspecified)	-22%
N/C(=N\OC(=O)CCc1ccccc1)c1cccc(Br)c1	5%
CCc1ccc(NS(=O)(=O)c2c(C(=O)N3CCCCCC3)c(C)n(C)c2C)cc1	24%
O=S(=O)(Nc1ccc(N2CCOCC2)cc1)c1ccc(F)cc1	15%
C/C(=N\O)C1(C)N(O)C(C)(C)C(c2ccco2)=[N+]1[O-] (stereo unspecified)	0%
CC1CN=C(c2cccn2Cc2ccc(F)cc2Cl)O1 (stereo unspecified)	-1%
CCOc1ccc2c(c1)C(C)=CC(C)(C)N2C(=O)Nc1ccccc1F	-3%
COc1cccc(C(C(=O)NC2CCCC2)N(Cc2ccc(C)cc2)C(=O)c2ccco2)c1OC (stereo unspecified)	2%
CCn1cc(C(=O)NCCCN2CCCC(C)C2)c(=O)c2cc(S(=O)(=O)N(C)C3CCCCC3)ccc21 (stereo unspecified)	-19%
COc1cccc(NC(=O)CN(C)CC(=O)Nc2ccc(Br)cc2)c1	-7%

4 of these compounds, reformatted:
Compound: CCn1cc(C(=O)O)c(=O)c2cc(F)c(N3CCN(C)CC3)cc21
  N370S GC = -3%&11%
Compound: Cc1cc(OCC(=O)O)c2ccccc2n1
  N370S GC = 4%
Compound: CCOc1ccc(C(=O)NCC(C)CN(C)C)cc1OCC (stereo unspecified)
  N370S GC = 1%
Compound: Cc1ccc(OCc2cc(C(=O)N3CCC(Oc4cccnc4)CC3)no2)cc1C
  N370S GC = -23%

The list goes on.
Molecule	N370S GC
CCCOc1ccc(N2CC(C(=O)Nc3ncccc3C)CC2=O)cc1 (stereo unspecified)	-28%
O=C(CSc1ccc(-c2ccccc2)nn1)N1CCCc2ccccc21	-7%
CN(C/C(O)=C(\C#N)c1ccccc1)C1CCCCC1	-13%[2.35 µM]
COc1ccc(NC(=O)C2=C(C)NC(=O)NC2c2cccs2)c(OC)c1 (stereo unspecified)	-3%
Cc1ccccc1NC(=O)CCC(=O)OCC(=O)c1cccc([N+](=O)[O-])c1	3%
CN1CCN(c2ccccc2NC(=O)c2ccc(Br)o2)CC1	-1%
Cc1nn(C)c2c(=O)c(=O)c2n(C)[nH]1	-7%
O=C(O)CCCC(=O)Nc1ccccc1C(=O)N1CCOCC1	-2%
Cc1ccc(C(=O)COC(=O)CCC(=O)Nc2cccc(Cl)c2)cc1[N+](=O)[O-]	2%
Cc1ccc(-c2noc(CCCC(=O)NC3CCCC3)n2)cc1	-2%
Cn1c2ccccc2c2cc(C(=O)N3CCN(CCO)CC3)sc21	-8%
Nc1ccn([C@H]2CS[C@@H](CO)O2)c(=O)n1	-10%
CCCCC1=CC2=C(c3ccco3)C(=O)C(C)(OC(=O)c3ccc(OC)cc3)C(=O)C2=CN1C(CO)CO (stereo unspecified)	-2%[12.8 µM]
COc1ccc(COCC(CC(C)C)N2CCN(C(=O)c3cccc(C(F)(F)F)c3)CCC2=O)cc1 (stereo unspecified)	-4%
Cn1c(Cc2cccs2)nnc1SCC(=O)Nc1ccccc1F	-3%
O=C(NC(=S)Nc1ccc2cn[nH]c2c1)c1ccccc1	8%
CN(CCCNC(=O)c1ccc(N2CCCC2=O)cc1)c1ccccc1	8%
O=C1N/C(=C/c2ccc(N3CCOCC3)o2)C(=O)N1c1cccc(Cl)c1	-9%
COc1cc(/C=N/NC(=O)c2cccnc2)ccc1OS(=O)(=O)c1ccc(C)cc1	2%
O=c1cccc(-c2ccccc2)[nH]1	-1%
CC(C)OCCCn1c(=O)c2ccccc2n2c(CCC(=O)NCc3ccccn3)nnc12	2%
O=C(Nc1nnc(-c2ccccc2)o1)c1cc(-c2cccs2)nc2ccccc12	-20%
COC(=O)C1(C)CN(S(=O)(=O)c2ccc(C)cc2)c2cc(OC)ccc2C1=O (stereo unspecified)	17%
Cc1ccc2c(c1)c(-c1ccccc1)nc1nncn12	1%
O=C(CCCCCC(=O)N(CCO)CCO)N(CCO)CCO	9%
CC(C)C1CC(O)(C2(O)CCCCC2)ON1 (stereo unspecified)	-1%
CC(C)NS(=O)(=O)c1ccc(OCC(=O)NC2CCCCCC2)cc1	-13%
CC(c1ccccc1)c1nnc(NC(=O)Nc2ccccc2)s1 (stereo unspecified)	0%
COc1ccc(Nc2cc(C)nc3nc(C)nn23)c(OC)c1	?
CCCc1cc(=O)n2[nH]c(C)c(-c3ccccc3)c2n1	-1%

Retrieved by compound from the entries so far, 2 records:
Molecule	N370S GC
COC(=O)C1(C)CN(S(=O)(=O)c2ccc(C)cc2)c2cc(OC)ccc2C1=O (stereo unspecified)	17%
O=C(CSc1ccc(-c2ccccc2)nn1)N1CCCc2ccccc21	-7%

Following part
Molecule	N370S GC
CNS(=O)(=O)/C=C/c1ccccc1	1%
CC(C(=O)O)N(c1ccccc1Cl)S(C)(=O)=O (stereo unspecified)	-1%
O=C(CNS(=O)(=O)c1cccs1)N1CCc2ccccc2C1	9%
FC(F)(F)c1cccc(N2Cc3ccccc3C2)c1	7%
COCCN(C(=S)Nc1ccc(C)cc1)C(C)c1ccco1 (stereo unspecified)	0%
Cc1ccc(C(=O)N/C(=C/c2ccco2)C(=O)N2CCCCC2)cc1	-8%
O=C(O)COc1ccccc1/C=N/NC(=O)C(O)c1ccccc1 (stereo unspecified)	-1%
CC(C)Nc1nc(SCC(=O)Nc2ccccc2)nc(N2CCOCC2)n1	-3%
Cc1ccc(C(=O)N2CCC3(CC2)Oc2ccc(Cl)cc2C(=O)C32CC(c3cccnc3)=NO2)s1 (stereo unspecified)	-8%

Source: PubChem (National Center for Advancing Translational Sciences (NCATS))

Only part of the results is shown, and most or all hits are left out here.
